From PubChem
HSV augment: enhancers of HSV replication in host cells, fold increase, host cell viability | HSV replication augmentation in cells | AID 1956, 2009 | actives 0.005% (n = 220,000) | maximum fold increase;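 active = peak rise of 1.5-fold or more in the series; tested in PC3 cells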;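 also: first round at 10 µM; read as green reporter fluorescence; hits show the peak of a series up to 25 µM; 1 = signal of infected wells without compound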
GALR2 agonist: GALR2 receptor agonists, primary screen, cell-based | Galanin receptor type 2 (Homo sapiens), O43603 | GALR2-expressing cells, agonist activation read-out | activation, %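 (tested at 5 µM)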 | actives 0.48% (n = 140,000);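 active = above mean plus 3 SD of all compounds, about 5% in these data, not always enough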;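 also: 0% = vehicle buffer wells and 100% = reference agonist at full effect; tested in CHO reporter cells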
Insulin prom inh: inhibitors of insulin promoter-driven GFP, primary screen, imaging, TRM-6 cells (human fetal islet line), eGFP reporter, cell count; reporter expression induced with tamoxifen; inhibition, % at 2 µM; actives 0.9% (n = 130,000);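 active = inhibition above the mean plus 3 SD, with well images judged a real hit on visual review, cut at about 60% in these data, passing the limit was not always enough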
PKD1 kinase inh: inhibitors of human PKD1 kinase, biochemical, fluorescence polarization; Serine/threonine-protein kinase D1 (Homo sapiens), Q15139; PKD1 kinase fluorescence polarization assay; inhibition, %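 (about 10 µM by stock and volumes)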; actives 0.056% (n = 200,000);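 active = inhibition of 50% or more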;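 also: controls were vehicle for no effect and a reference inhibitor for full effect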
Target sequence (Q15139 whole entry, looked up): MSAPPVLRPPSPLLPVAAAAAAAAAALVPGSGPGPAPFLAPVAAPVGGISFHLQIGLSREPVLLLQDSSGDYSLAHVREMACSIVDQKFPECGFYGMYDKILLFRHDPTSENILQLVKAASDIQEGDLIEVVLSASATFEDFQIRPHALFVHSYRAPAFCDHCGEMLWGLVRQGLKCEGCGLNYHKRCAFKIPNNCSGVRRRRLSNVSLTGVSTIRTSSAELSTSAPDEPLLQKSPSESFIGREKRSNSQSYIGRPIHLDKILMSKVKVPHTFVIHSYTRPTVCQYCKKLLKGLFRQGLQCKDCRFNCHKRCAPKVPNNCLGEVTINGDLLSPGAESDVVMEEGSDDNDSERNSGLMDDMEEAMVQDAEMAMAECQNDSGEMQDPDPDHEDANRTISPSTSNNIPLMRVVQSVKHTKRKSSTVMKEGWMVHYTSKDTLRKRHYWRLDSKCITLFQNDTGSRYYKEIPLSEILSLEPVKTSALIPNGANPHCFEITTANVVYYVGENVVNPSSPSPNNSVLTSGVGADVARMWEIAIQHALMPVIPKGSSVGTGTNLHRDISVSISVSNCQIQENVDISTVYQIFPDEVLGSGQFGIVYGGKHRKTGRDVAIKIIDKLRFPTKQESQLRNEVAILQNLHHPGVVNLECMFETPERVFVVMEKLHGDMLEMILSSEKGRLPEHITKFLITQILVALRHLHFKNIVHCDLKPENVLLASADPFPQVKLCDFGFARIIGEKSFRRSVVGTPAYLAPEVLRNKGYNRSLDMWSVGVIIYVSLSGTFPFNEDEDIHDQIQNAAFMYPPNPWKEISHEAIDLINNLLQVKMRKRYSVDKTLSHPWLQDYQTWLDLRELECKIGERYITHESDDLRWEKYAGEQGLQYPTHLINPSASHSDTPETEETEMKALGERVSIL
RGS16-Gao HTS: modulators of RGS16 binding to Galphao, primary screen, biochemical, human proteins, multiplexed bead flow cytometry; Regulator of G-protein signaling 16 (Homo sapiens) + Guanine nucleotide-binding protein …; bead-based flow cytometry RGS16-Galphao binding, fluorescence; actives lie on both sides; binding response (% of control), % at 10 µM; actives 0.38% (n = 220,000); AID 1441, 2008;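 active = below 25% or above 175%, edge rows of some plates excepted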;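 also: Galphao activated by GDP with aluminum fluoride before binding; 100% = wells without compound and 0% = beads without RGS; some results beyond the cut were filed as inactive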
Insulin prom inh cell count: also measured in Insulin prom inh; calls as there; normalized cell count, %; measured here: cell count, toxicity; reference of the scale not given here;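 cells exposed to compound for 48 h; stained nuclei by imaging scaled within each plate; lower means fewer cells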
HSV augment primary fold: recorded beside HSV augment, whose call it bears; fold increase; compound at 10 µM; measured here: primary screen fold increase 10 uM; tested in PC3 cells;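 GFP signal in the first replicate; 1 = infected wells without compound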
* hit, by the source's call; i = inactive; / = no result given.

SMILES	HSV augment	HSV augment primary fold	GALR2 agonist	Insulin prom inh	Insulin prom inh cell count	PKD1 kinase inh	RGS16-Gao HTS
CC(C)(/C=N/O)/[N+]([O-])=C/C=[N+](\[O-])C(C)(C)/C=N/O	i	1	-1.1	38	83	-12	96
Cc1ccc(C(=O)N2CCN(Cc3ccc4c(c3)OCO4)CC2)o1	i	0.91	-0.5	-59	137	-2	132
O=C(CCOc1ccc(F)cc1)Nc1nccs1	i	1.1	/	/	/	/	108
COc1ccc(C(=O)CSc2ccc3nnc(-c4cccnc4)n3n2)cc1	i	0.89	/	18	81	-3	106
CCCC(C(=O)NCc1ccccc1)N(C(=O)Cn1nnc(-c2cccs2)n1)c1ccc2c(c1)OCCO2 (stereo not drawn)	i	1	-1.4	62	96	-8	100
C1CCN(Cc2nnnn2CC2CCCO2)CC1 (stereo not drawn)	i	1	/	-23	118	-6	102
CCCCc1ccc(NC(=O)c2c(C)noc2C)cc1	i	0.89	-3.7	-40	193	-1	102
O=C1CCCc2c1[nH]c1ccc(CN3CCCCC3)cc21	i	0.94	-1.0	-8	104	-3	102
COc1ccc(Cc2nnc(SCC(=O)N3CCCCC3)o2)cc1	i	0.98	/	/	/	-5	105
COc1cc2c(cc1NC(=S)Nc1ccccc1C)oc1ccccc12	i	0.99	-2.1	/	/	-5	95
C=CCn1c(SCC(N)=O)nnc1-c1cc2c(s1)CCC(CC)C2 (stereo not drawn)	i	0.88	0.4	32	154	-5	104
Cc1cc(C)nc(/N=C(\N)Nc2ccc3c(c2)OCCO3)n1	i	0.65	/	/	/	-7	104
CCOC(=O)Cn1nnnc1CN1CCN(c2ccc(OC)cc2)CC1	i	0.97	/	/	/	3	97
CN(CC(=O)O)S(=O)(=O)c1ccc2[nH]c(=O)c(=O)[nH]c2c1	i	0.95	/	/	/	/	98
O=C(NCc1ccccn1)C(=O)Nc1ccccc1	i	1	/	-17	108	-3	92
CCN(CC)Cc1c(O)c(Cl)cc2c(C)c(C)c(=O)oc12	i	0.87	2.1	i	79	-9	102
CCCc1cc(-c2n[nH]c(=S)n2Cc2ccccc2)cs1	i	0.98	0.0	-3	71	5	93
Cc1cc2cc(CCNC(=O)C3c4ccccc4Oc4ccccc43)c(=O)[nH]c2cc1C	/	/	-0.3	25	108	-3	97
Cc1nc(SCC(=O)c2cc3ccccc3oc2=O)c(C#N)c(C)c1C(=O)Nc1ccccc1	i	0.89	0.0	-23	186	-16	92
CC(=O)Nc1ccc(NC(=O)COC(=O)c2n[nH]c3ccccc23)cc1	i	1.1	/	/	/	-4	122
CCCCN1C2CCCC1CC(NC(=O)N(C(C)C)C(C)C)C2 (stereo not drawn)	/	/	-2.0	-267	55	-8	/
Cc1cccc(NC(=O)COC(=O)CCc2ccc(S(=O)(=O)N3CCOCC3)cc2)c1C	i	0.96	/	-37	85	-10	99
COc1ccc(-c2ccnc3ncnn23)cc1	i	1.1	/	/	/	2	91
COC(=O)C(C)Sc1ccc2nnc(CCNS(=O)(=O)c3ccccc3)n2n1 (stereo not drawn)	i	0.96	/	/	/	-1	99
Cc1ccc(C(=O)Nc2ccc(C(=O)N3CCCCC3)cc2)cc1	i	1.1	/	24	105	-4	101

Copied from the list.
GALR2 agonist, CCCC(C(=O)NCc1ccccc1)N(C(=O)Cn1nnc(-c2cccs2)n1)c1ccc2c(c1)OCCO2 (stereo not drawn) reads -1.4
RGS16-Gao HTS, CCCc1cc(-c2n[nH]c(=S)n2Cc2ccccc2)cs1 reads 93

(further entries)
SMILES	HSV augment	HSV augment primary fold	GALR2 agonist	Insulin prom inh	Insulin prom inh cell count	PKD1 kinase inh	RGS16-Gao HTS
O=c1[nH]c(=S)[nH]cc1Oc1ccc(Cl)cc1Cl	i	0.83	/	/	/	/	103
O=C(Nc1ccc([N+](=O)[O-])cc1)Nc1nc(-c2ccc(Cl)s2)cs1	i	0.51	1.2	78*	85*	-14	98
COCCNC(=O)C(c1ccc(C)o1)N(CCOC)C(=O)Cn1nnc2ccccc21 (stereo not drawn)	i	1	/	27	77	-1	110
CCC1C(=O)n2nc(-c3ccccc3)cc2N=C1C (stereo not drawn)	i	0.96	-1.2	-20	96	1	84
O=[N+]([O-])c1cn(Cc2ccccc2)cn1	i	0.99	-1.1	-7	108	-1	111
Cc1cc(C)cc(C(=O)NCC(=O)OCC(=O)NCC(F)(F)F)c1	i	1	/	/	/	-3	102
COc1ccc(N2CCN(Cc3nc4sc(C)c(C)c4c(=O)[nH]3)CC2)cc1	i	0.98	/	/	/	9	99
Cn1c(SCC(=O)N2CCCCC2)nc2cccnc21	i	0.93	-1.9	-12	99	0	100
Cc1cc(C)n(-c2ccn(Cc3ccc(Cl)cc3Cl)c(=O)n2)n1	i	0.87	-0.4	/	/	-16	103
O=c1oc2ccccc2nc1/C=C(\O)c1ccccc1	i	0.9	/	/	/	/	98
COc1ccc(CCN(C)CCC(=O)Nc2cccc(C)c2)cc1OC	i	1	/	/	/	/	102
O=C(CC(Cc1ccccc1)C(=O)O)NCCc1ccc2c(c1)OCO2 (stereo not drawn)	i	0.94	-0.1	63	11	-1	101
CCN(CC)C(=O)C1CCN(Cc2cn(C)nc2-c2ccc(Oc3ccccc3)cc2)CC1	i	0.9	/	7	60	-8	103
O=C(Nc1ccc(Cl)cn1)c1ccc(-c2cc(Cl)ccc2Cl)o1	/	/	-1.7	-3	137	-7	102
Cc1ccc(Nc2cc(C)nn2-c2nc(C)cc(C)n2)cc1	i	0.52	0.2	-19	96	-8	106
Cc1onc(-c2ccccc2)c1C(=O)NC(=S)NNC(=O)c1ccc(O)cc1O	i	0.77	-0.9	57	95	7	103
Cc1ccsc1/C=N/Nc1nc(Cl)c(Cl)cc1Cl	i	0.96	0.4	19	146	3	93
COc1ccccc1N1CCN(C(c2ccccc2Cl)c2nnnn2C(C)(C)C)CC1 (stereo not drawn)	i	0.84	-3.4	/	/	-9	101
O=c1[nH]c2ccccc2nc1-c1cccs1	i	0.91	12*	/	/	1	113
Cn1c(=O)c2cn(-c3cccc4ccccc34)cc2n(C)c1=O	i	0.97	/	/	/	/	74
COc1cc(OC)cc(C(=O)NC(C(=O)NCCN(C)C)C23CC4CC(CC(C4)C2)C3)c1 (stereo not drawn)	i	0.94	-2.7	/	/	5	101
CCc1ccc(NC(=O)/C(C#N)=C/c2cn(CC(=O)O)c3ccccc23)cc1	i	0.96	/	0	103	-3	116
Cc1cccc(C(C)C)c1NC(=O)c1ccc(CN(c2ccccc2)S(=O)(=O)c2ccccc2)cc1	i	0.94	0.3	/	/	-7	154
CCOc1cc(/C=N/NC(=O)c2c(-c3ccccc3)noc2C)ccc1O	i	0.9	/	12	75	4	104
Cc1cccc(OCCC(=O)NCC(=O)Nc2c(C)cccc2C)c1	/	/	-0.9	/	/	-5	104

Whole records, looked up by structure.
CCc1ccc(NC(=O)/C(C#N)=C/c2cn(CC(=O)O)c3ccccc23)cc1 in the list: HSV augment = i; HSV augment primary fold = 0.96; GALR2 agonist = /; Insulin prom inh = 0; Insulin prom inh cell count = 103; PKD1 kinase inh = -3; RGS16-Gao HTS = 116
Cn1c(SCC(=O)N2CCCCC2)nc2cccnc21 in the list: HSV augment = i; HSV augment primary fold = 0.93; GALR2 agonist = -1.9; Insulin prom inh = -12; Insulin prom inh cell count = 99; PKD1 kinase inh = 0; RGS16-Gao HTS = 100

Structures above marked active in GALR2 agonist:
| compound | HSV augment primary fold | GALR2 agonist | PKD1 kinase inh | RGS16-Gao HTS |
| --- | --- | --- | --- | --- |
| O=c1[nH]c2ccccc2nc1-c1cccs1 | 0.91 | 12* | 1 | 113 |

(further entries)
SMILES	HSV augment	HSV augment primary fold	GALR2 agonist	Insulin prom inh	Insulin prom inh cell count	PKD1 kinase inh	RGS16-Gao HTS
Cn1nc([N+](=O)[O-])nc1Oc1ccccc1	i	0.9	-0.7	24	129	-6	99
CC(C)c1nc(Cl)c(C#N)c2c1CCCC2	i	0.86	0.3	7	116	-8	91
COc1ccc2c(c1OC)C(=O)OC2Nc1nc(-c2cccc([N+](=O)[O-])c2)cs1 (stereo not drawn)	i	1.1	/	/	/	/	106
COc1ccc2nc(NC(=O)CN3CCN(C)CC3)sc2c1	i	0.98	-4.2	/	/	-9	104
Cc1cc(NC(=O)c2cnn3cccnc23)no1	i	0.78	-2.2	-162	138	-9	102
COC(=O)c1ccc(-c2cc(C(=O)O)c3cc4c(cc3n2)OCCO4)cc1	i	0.93	-0.1	/	/	-2	145
O=C(/C=C/c1ccc2c(c1)OCO2)NCCSCc1c(Cl)cccc1Cl	i	1.1	-0.2	-7	104	-12	101
O=C1CCCc2ccccc2N1Cc1ccc(F)cc1	i	1.1	/	-43	70	-7	104
COc1cc(C)c(C)cc1S(=O)(=O)N1CCN(Cc2ccc3c(c2)OCO3)CC1	i	1.1	-1.6	-57	95	-1	102
Cc1cc(C)c2sc(N(CCN(C)C)C(=O)c3cc(Cl)sc3Cl)nc2c1	i	0.87	/	22	154	-9	99
CC(C)c1ccc(Nc2nc(NCc3ccco3)nc(N3CCOCC3)n2)cc1	i	0.83	-2.9	/	/	14	101
c1ccc(Cn2nnc3c(N4CCCCCC4)ncnc32)cc1	i	0.58	0.2	/	/	-14	100
CCCCNC(=O)c1ccc(NC(C)=O)c(Cl)c1	i	1.3	/	-12	60	-3	102
CC1(OC(=O)CCc2ccccc2)C(=O)C=C2C=C(c3ccc(C#N)cc3)N(CCN3CCOCC3)C=C2C1=O (stereo not drawn)	i	0.96	/	/	/	/	103
CCN(c1ccc2c(c1)OCO2)S(=O)(=O)c1cc(Br)cc2c1N(C(C)=O)CC2	i	0.7	-3.2	-47	117	5	93
CCN1CCN(c2c(Cl)cccc2NC(=O)c2ccc(Br)o2)CC1	/	/	-0.4	/	/	21	103
CCOCCCn1c(=N)c(C(=O)NCc2ccc3c(c2)OCO3)cc2c(=O)n3cccc(C)c3nc21	i	0.74	-2.6	45	80	-14	99
CC(C)N1CCN(Cc2ccc(C#CC(C)(C)O)cc2)CC1CCO (stereo not drawn)	i	1.1	/	-13	95	-5	129
O=C1NC(=O)C2(CCc3ccccc32)N1 (stereo not drawn)	i	1	0.3	/	/	1	100
Cc1ccc(S(=O)(=O)/C(C#N)=C/c2c[nH]c3ccccc23)cc1	i	0.99	-1.1	-9	174	6	101
CCc1nnc(SCCSc2nnc(CC)n2N)n1N	i	1	-1.2	-15	59	-6	99
C=CCN(CC=C)S(=O)(=O)c1ccc(C(=O)Nc2nc3c(s2)CCc2ccccc2-3)cc1	i	0.65	9.2*	19	104	-1	103
Cc1sc2ncn(-n3c(C)ccc3C)c(=O)c2c1C	i	0.94	-1.2	-73	98	-7	100
Cc1cccc(OC2CCN(Cc3nc(CC4CC4)no3)CC2)c1	i	1	/	/	/	-3	104
COc1cccc(CN2CCNC(=O)C2CC(=O)N(C)Cc2cnccn2)c1OC (stereo not drawn)	i	0.82	/	/	/	-7	109

Continued (two carried over from the part before).
SMILES	HSV augment	HSV augment primary fold	GALR2 agonist	Insulin prom inh	Insulin prom inh cell count	PKD1 kinase inh	RGS16-Gao HTS
Cc1cccc(OC2CCN(Cc3nc(CC4CC4)no3)CC2)c1	i	1	/	/	/	-3	104
COc1cccc(CN2CCNC(=O)C2CC(=O)N(C)Cc2cnccn2)c1OC (stereo not drawn)	i	0.82	/	/	/	-7	109
COC(=O)CN(c1ccc2c(c1)OCO2)S(C)(=O)=O	i	1.2	-0.9	-10	96	-10	106
CCCCNC(=O)c1cn(-c2ccc(OCC)cc2)c(=O)c2cc(OC)c(OC)cc12	i	0.82	-0.3	34	114	-6	105
C=CCNC(=S)Nc1ccc(F)cc1F	i	0.96	-0.5	17	120	0	104
COc1ccccc1N1CCN(C(=O)C(=O)N/N=C/c2ccccc2F)CC1	i	1	0.0	-57	59	-5	113
OC1(c2cccc(F)c2)CCN(Cc2ccncc2)CC1	i	1.1	-1.2	14	114	-9	103
CC(C)Cn1c(-c2ccc(C#N)cc2)nc2c1c(=O)[nH]c(=O)n2CC(C)C	i	0.83	-2.2	-23	116	1	97
COc1ccc(NC(=O)c2cc(F)cc(F)c2)cc1Cl	i	0.81	-1.1	27	113	3	102
O=C(CSc1nnc(-c2cccs2)n1-c1ccccc1)N1CCOCC1	i	0.96	-1.2	38	92	-5	100
CS(=O)(=O)N(CCc1ccccc1)CC(=O)NCc1ccc2c(c1)OCO2	i	1.1	-2.2	-15	156	4	3.7*
O=C(Nc1cc(Oc2ccc(Cl)cc2)cc([N+](=O)[O-])c1)c1ccco1	i	0.9	-0.9	10	135	-13	101
O=C1/C(=C/c2coc3ccc(O)cc3c2=O)SC(=S)N1c1ccccc1	i	0.97	/	/	/	/	89
CCC1CCCCN1C(=O)CSc1nc2c(c(=O)n(C)c(=O)n2C)n1C (stereo not drawn)	i	0.87	/	/	/	-8	106
